GLA inh pH 4.5 = qHTS Assay for Inhibitors of Human alpha-Galactosidase at pH 4.5; 230,000 tested, under 10 active; Alpha-galactosidase A (Homo sapiens), P06280; activity change, negative = inhibition, % at 105 µM; purified enzyme, 4-MU-alpha-Gal fluorescence, pH 4.5; inconclusive = small, poorly fitted or top-dose-only inhibition, or a rising curve; inactive = flat fitted curve, though single readings scatter; no compound was filed as active;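 also: 0% = full activity with enzyme and -100% = basal without enzyme; dose as in the result columns while the protocol names 77 µM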
miR-21 reporter = qHTS Assay for Modulators of miRNAs and/orActivators of miR-21 | 340,000 tested, under 10 active | Potency, µM (top dose mostly 38.3 µM), for inactives: at the top dose reporter change, positive = more light | HeLa miR-21 FLuc reporter, luciferase, 48 h; active = well fitted rising curve with a large enough effect; inconclusive = small, poorly fitted or top-dose-only effect; inactive = no such curve, though single readings can be large or run the other way;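 also: % of control where 0% means no effect; miR-21 action dims this reporter so a rising signal means less miR-21 action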
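HeLa miR-21-FLuc reporter line, endogenous miR-21; 2000 cells/well in DMEM/10% FBS; compound titration up to ~40uM final, 48 h, 37 degree Celsius; luciferase detection reagent, 15 min lysis, CCD luminescence.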
Rango complex inh = qHTS Assay for Inhibitors of Rango (Ran-regulated importin-beta cargo) - Importin beta complex formation; Rango CFP/YFP FRET sensor + importin beta, 45 min; Potency, µM (top dose mostly 92.2 µM), for the others: at the highest dose inhibition of complex formation; AID 540263, 2011; Importin subunit beta-1 (Homo sapiens), Q14974; 0.031% of 340,000 active; active = rising FRET ratio curve, often small or poorly fitted; inconclusive = mostly compound fluorescence or quenching in the first reads; inactive = flat curves in all reads;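 also: potency is read from the fitted curve at half-maximal effect; 0% = DMSO wells and 100% = buffer wells lacking importin beta; nearly all actives have a fitted effect of over 15% in size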
Target sequence (Q14974 whole entry, looked up): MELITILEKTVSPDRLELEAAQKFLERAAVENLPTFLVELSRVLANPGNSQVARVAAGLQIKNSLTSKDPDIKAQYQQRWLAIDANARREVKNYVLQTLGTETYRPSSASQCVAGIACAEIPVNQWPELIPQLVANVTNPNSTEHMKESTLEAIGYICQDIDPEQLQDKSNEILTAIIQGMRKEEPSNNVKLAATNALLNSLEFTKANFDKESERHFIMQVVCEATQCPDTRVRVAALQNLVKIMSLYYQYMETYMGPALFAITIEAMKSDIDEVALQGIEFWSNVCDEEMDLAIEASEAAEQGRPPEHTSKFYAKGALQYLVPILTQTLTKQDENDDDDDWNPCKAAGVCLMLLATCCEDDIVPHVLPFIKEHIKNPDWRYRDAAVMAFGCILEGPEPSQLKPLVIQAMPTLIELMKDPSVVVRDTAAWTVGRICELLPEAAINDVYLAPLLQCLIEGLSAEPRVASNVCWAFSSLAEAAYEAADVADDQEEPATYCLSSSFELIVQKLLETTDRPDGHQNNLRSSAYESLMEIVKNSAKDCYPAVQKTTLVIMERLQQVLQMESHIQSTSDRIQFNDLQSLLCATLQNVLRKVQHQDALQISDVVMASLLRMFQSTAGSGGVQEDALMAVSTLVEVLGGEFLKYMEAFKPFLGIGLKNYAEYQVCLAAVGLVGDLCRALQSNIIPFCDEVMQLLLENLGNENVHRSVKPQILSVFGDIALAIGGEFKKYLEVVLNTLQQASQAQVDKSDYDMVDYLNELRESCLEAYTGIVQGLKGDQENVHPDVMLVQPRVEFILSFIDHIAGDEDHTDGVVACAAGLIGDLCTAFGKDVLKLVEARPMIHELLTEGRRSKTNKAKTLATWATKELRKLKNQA
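FRET biosensor Rango (snurportin 1 IBB between N-terminal EYFP and C-terminal Cerulean), 50 nM in PBS/1 mM DTT/0.02% Tween-20/0.1% BSA, preincubated 5 min RT with compound; 0.125 microM importin beta added, 45 min RT, CFP/YFP FRET ratio read.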
Rango release inh = qHTS Assay for Inhibitors of RanGTP induced Rango (Ran-regulated importin-beta cargo) - Importin beta complex dissociation; Snurportin-1 (Homo sapiens) + GTP-binding nuclear protein Ran (Homo sapiens) + Importin …; Biochemical FRET Rango-importin beta, RanGTP-induced dissociation; Potency, µM (titrated, usually from 46.1 µM), without a hit: top-dose activity change, negative = inhibition; 0.071% of 340,000 active; AID 540253, 2011; active means falling FRET ratio curve, often poorly fitted, with flat reads before Ran was added; inconclusive means other falling curves, or compound fluorescence or quenching; inactive means flat or rising ratio curve;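 also: potency is read from the fitted curve at half-maximal effect; % of control where 0% means no effect; nearly all actives have a fitted effect of over 45% in size; -100% = wells without RanGTP and RCC1; the record marks most hits as doubtful in a second field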
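Rango/importin beta premix (0.1/0.25 uM final), PBS + 1 mM DTT + 0.02% Tween-20 + 0.1% BSA; cpd 5 min RT; FRET pre-read; + RanGTP-RCC1 (0.6 uM Ran, 2 mM GTP, 0.2 uM RCC1); 45 min RT; FRET post-read, ex 430, em 486/530 nm.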
* hit, by the source's call; ? = inconclusive; · = no result given; & = joins results of further samples. Only part of the results is shown, so the mix of outcomes need not match the whole.

SMILES	GLA inh pH 4.5	miR-21 reporter	Rango complex inh	Rango release inh
COc1cccc(C(=O)Nc2nnc(-c3ccccc3)s2)c1OC	·	-59.9%	-0.6%	-9.8%
CC1CCN(C(=O)COC(=O)[C@H](C)NS(=O)(=O)/C=C/c2ccccc2)CC1	-9.5	-2.1%	0.5%	5.1%
Cc1c(C(=O)N2CC(C)OC(C)C2)sc2nc(-c3ccc(F)cc3)cn12 (stereo not given)	-3.7	-8.4%	-2.4%	-0.6%
Cc1ccc(C(C)(C)C)cc1S(=O)(=O)NC(=O)c1ccccc1	2.5	-3.2%	?	-6.3%
CSCC[C@H](NC(=O)C1CCCC1)c1nc2ccccc2[nH]1	9.6	-1.0%	0.2%	-6.6%
CC(C)(C)C(=O)NCCn1ccc2ccccc21	3.4	-10.1%	3.8%	5.2%
N=c1sccn1CC(=O)Nc1ccccc1Oc1ccccc1	-2.4	4.8%	?	-4.5%
Cc1ccc(C)c(-n2c(Cc3cc(=O)[nH]c(=O)[nH]3)nnc2SCC(=O)NCC2CCCO2)c1 (stereo not given)	9.8	-0.1%	-3.2%	2.0%
O=C(O)CCC(=O)Nc1nnc(C(F)(F)F)s1	3.6	1.6%	-1.2%	-8.4%
C=CCn1c(SCC(=O)NC2(C#N)CCCCC2)nnc1-c1ccncc1	·	·	-1.2%	-23.6%
CN(C)CCC=C1c2ccccc2CCc2ccccc21	-1.1&-9.6&-9.6&4.1	-0.4%	5.0%	-3.8%
Cc1sc2ncnc(OCC(=O)NCc3cccs3)c2c1C	4.0	-10.4%	-1.6%	-3.2%
O=C(OCc1cc(=O)n2ccsc2n1)c1ccccc1NCCO	·	·	-0.9%	15.1%
Cc1ccccc1NC(=O)CSc1[nH]c(=O)cc(C)c1C#N	3.1	-5.2%	-3.2%	-2.3%
COc1cc(-c2cn[nH]c2N)cc(OC)c1OC	-5.8	0.5%	-0.7%	0.1%
c1cc2c3c(cccc3c1)NC1(CCC3(CC1)Nc1cccc4cccc(c14)N3)N2	-17.2	29.4%	-2.8%	-4.0%
O=C1c2ccccc2C(=O)C12OC2c1cccc2ccccc12 (stereo not given)	-5.6	1.1%	4.6%	17.0%
COc1ccc2ccccc2c1/C=N/NC(=O)c1nnn(-c2nonc2N)c1C(C)C	·	-3.1%	-3.7%	13.4%
CCC(C)c1ccccc1NC(=O)COC(=O)c1ccc2[nH]c3c(c2c1)CCCC3 (stereo not given)	-12.2	24.8%	3.0%	-9.4%
CC(=O)NS(=O)(=O)c1ccc(N=NN2CCOCC2)cc1	4.7	-3.7%	-2.4%	-9.4%
CC(=O)c1c(C(C)=O)c(C)n(NC(=O)c2ccc(Cl)cc2)c1C	3.5	1.2%	-0.1%	10.8%
CC1CCCC(=C\c2ccccc2)/C1=N/O (stereo not given)	-0.7	-20.7%	-1.0%	3.4%
Nc1ccc2ccccc2c1C(=O)c1ccccc1	·	·	2.1%	-1.1%
S=C(Nc1ccc2c(c1)OCO2)NC1CCN(Cc2ccccc2)CC1	3.2	-2.5%	0.3%	14.3%
Brc1c(NC2=NCCN2)ccc2nccnc12	-1.1&-18.0&-2.8	5.2%	·	·
CCOC(=O)CCCn1c(C)nc(=O)c(-c2ccccc2)c1C	3.6	-2.8%	-1.8%	1.8%
Cc1n[nH]c(C)c1CCOc1ccc(C(C)C)cc1	5.4	-19.0%	1.0%	1.6%
CCCCSc1nsc(NC(C)=O)n1	2.1	-44.8%	4.2%	-1.0%
CC1CN(C(=O)c2ccccc2Oc2ccccc2)CC(C)O1 (stereo not given)	11.8	0.4%	0.9%	-7.6%
COc1cc(OC)cc(C(=O)NNC(=O)CCCOc2ccccc2)c1	·	·	-0.1%	9.1%
Cc1ccc(C)c(NS(=O)(=O)c2c(C)nc3sccn3c2=O)c1	·	-0.5%	-0.1%	17.7%
CC(/C=C/C=C/c1ccccc1)=N/NC(=O)CNc1ccc(C)cc1	2.9	-8.0%	9.9%	-9.4%
CSCC[C@H](NC(=O)C1CCN(S(=O)(=O)c2ccc(C)cc2)CC1)C(=O)NCc1ccco1	3.4	4.6%	2.3%	-4.8%
CC(/C=N\NC(=O)c1cccnc1)c1ccccc1 (stereo not given)	·	·	3.0%	1.8%
CCN(c1cccc(C)c1)S(=O)(=O)c1ccc(-c2ccc(=O)[nH]n2)o1	·	4.0%	-3.3%	7.0%
O=C(/C=C/c1ccc(O)cc1)c1ccc(NC2=C(N3CCCCC3)C(=O)c3ccccc3C2=O)cc1	-16.6	16.4%	?	?
CCCS(=O)(=O)NCCc1cc2ccc(C)cc2[nH]c1=O	5.0	-18.5%	-3.3%	5.1%
N#Cc1c(-c2ccc(F)cc2)c(-c2ccc(F)cc2)nn(CCO)c1=O	·	·	-0.6%	1.3%
CCOc1ccc(CCNC(=O)c2cc3sccc3n2CC)cc1OCC	-8.3	?	-0.2%	17.0%
Cc1nn(C)c(Oc2cccc(Cl)c2)c1C(=O)Nc1ccc(F)cc1F	-5.5	-19.8%	?	19.7%
COc1cccc(CC(=O)NC2CCSc3ccccc32)c1 (stereo not given)	·	-5.3%	0.1%	6.2%
Cc1onc(-c2ccccc2)c1CNC(=O)Nc1ccc(F)cc1F	-8.4	13.7%	-2.3%	1.1%
CCOC(=O)c1ccc2nc(NC(=O)c3ccco3)sc2c1	-3.4	-29.1%	-2.2%	-18.2%
C=CCn1c(=O)c(C(=O)Nc2ncccc2O)c(O)c2ccccc21	·	-0.8%	-0.6%	4.4%
O=C(NC12CC3CC(CC(C3)C1)C2)c1ccc(-c2ccccc2Cl)o1	-1.6	-50.4%	4.7%	-15.1%
Cc1nnc(SC(C)C(=O)Nc2ccc(S(=O)(=O)NC3CCCCC3)cc2)s1 (stereo not given)	3.3	-7.8%	4.3%	6.8%
O=C(CSCc1c[nH]c(=O)[nH]c1=O)OCC(=O)c1ccc(Br)cc1	2.1	2.5%	0.2%	-10.9%
COc1ccc(C(=O)Nc2nnc(C3=COCCO3)o2)cc1	·	-11.3%	0.8%	-7.2%
Cc1nc(-c2ccc(C(=O)N3CCOCC3)cc2)cs1	1.1	-26.8%	0.2%	11.0%
CCOC(=O)c1sc(NC(=O)CSc2nc3ccccc3s2)c(C(=O)OCC)c1C	1.6	-3.9%	·	·
Fc1ccc2nc(-c3ccccc3)nc(SCc3nnc(-c4ccccc4)o3)c2c1	0.8	-0.1%	-3.5%	3.9%
Cc1ccc(OC(C)C(=O)N2CC(=O)Nc3ccccc32)c(C)c1 (stereo not given)	·	-1.8%	-1.6%	8.5%
N#Cc1ccccc1OCC(=O)OCC(=O)N1CCN(C(=O)c2ccco2)CC1	0.7	-3.9%	-1.1%	6.2%
O=C1C=CC(=O)N1Nc1ccc(Br)cc1	3.0	-5.2%	-1.4%	?
CCOc1ccc(S(=O)(=O)NC(Cc2c[nH]c3ccccc23)C(=O)O)cc1 (stereo not given)	·	-1.8%	1.0%	-23.9%
CC(=O)N1[C@H](C)C=C[C@]1(Cc1ccccc1)C(=O)NCCN1CCOCC1	1.9	·	-2.6%	-12.8%
COc1cccc(N=Nc2c(=O)[nH]n3c(C)cc(C)nc23)c1	-4.3	-18.5%	0.4%	9.1%
CCn1cc(C(=O)N2CCCc3ccccc32)c2cc(OC)c(OC)cc2c1=O	2.0	-10.2%	1.3%	1.9%
CCCCC(=O)NC1(C(F)(F)F)C(=O)N(CC(C)C)C2=C1C(=O)CC(C)(C)C2 (stereo not given)	-8.4	-16.5%	-0.2%	9.4%
Cc1ccc(C(C(=O)NC(C)(C)C)N(Cc2ccco2)C(=O)CCC(=O)Nc2ccccn2)cc1 (stereo not given)	·	2.4%	-0.7%	-4.6%
Additional compounds:
SMILES	GLA inh pH 4.5	miR-21 reporter	Rango complex inh	Rango release inh
O=C(Nc1ccccn1)c1ccc(S(=O)(=O)N2CCCCC2)cc1	·	·	-4.4%	-5.5%
O=C(Nc1c(-c2ccccc2)nc2ccccn12)c1ccccc1F	·	-9.8%&2.5%	-0.3%	-4.8%
COC(=O)c1cc(Br)c(=O)n(CCN2CCOCC2)c1	0.7	-1.1%	-0.3%	22.8%
COc1ccc(OC)c(/C=C2\SC(N3CCCCC3)=NC2=O)c1	·	-31.7%	?	?
COCc1ccc(-c2c(-c3cc(OC)cc(OC)c3)oc(=O)c3cc(OC)c(OC)cc23)cc1	·	·	5.2%	-24.0%
COc1c(O[C@@H]2O[C@H](CO)[C@@H](O)[C@H](O)[C@H]2O)cc2c(c1OC)-c1ccc(SC)c(=O)cc1C(NC(C)=O)CC2 (stereo not given in full)	·	·	0.2%	-11.6%
COc1ccnc(-n2cccc2C#N)c1C#N	10.0	3.4%	1.7%	-6.3%
Cc1ccc(NC(=O)c2oc3ccccc3c2C)nc1	·	-56.4%	-0.2%	-5.4%
O=C(CCS(=O)(=O)c1ccc(Br)s1)NCc1ccc2c(c1)OCO2	1.5	1.1%	-5.1%	-5.2%
Cc1cc(C)n(C(=O)CCN2C(=O)c3ccccc3C2=O)n1	-0.7	-3.4%	-1.1%	6.9%
C=C1CC[C@@H]2[C@](C)(CO)[C@H](O)CC[C@@]2(C)[C@@H]1/C=C/C1=CCOC1=O	·	1.6%	5.2%	-3.2%
CC(Sc1nnc(CN2CCCC2)n1Cc1ccccc1)C(=O)Nc1ccc(F)c(F)c1F (stereo not given)	·	·	0.1%	7.3%
COc1cc(/C=N/OCC(=O)NC23CC4CC(CC(C4)C2)C3)ccc1OCc1ccccc1	-2.1	-1.7%	-6.1%	-5.2%
O=c1[nH]c2ccccc2s1	1.5	-4.1%	-0.1%	1.2%
CCOC(=O)c1nc(Nc2cccc(C)c2)c2ccccc2n1	-0.3	16.9%&20.8%	0.3%	10.6%
Cc1ccc(C2=CC(=O)C[C@H](c3ccc(Cl)cc3)C2)cc1	·	·	-3.4%	29.9%
CN1CCN(C(=O)CSc2nc(-c3ccco3)cc(C(F)(F)F)n2)CC1	-13.8	4.2%	-0.7%	27.0%
COc1ccc(OCCCCn2c(CO)nc3ccccc32)cc1	·	0.9%	0.4%	-13.2%
CCOc1ccc(N/C(C)=C\C(=O)c2ccc3c(c2)OCCO3)cc1	-11.7	-47.7%	-2.6%	-3.6%
O=C1CSC(c2ccccc2Cl)N1 (stereo not given)	0.6	1.6%	2.5%	0.1%
COc1ccc(NC(=O)C(C)N2c3cccc4cccc(c34)S2(=O)=O)cc1 (stereo not given)	-1.2	-0.9%	-4.2%	-3.9%
Cc1ccc2nc(SCC(=O)NC(=O)NCc3ccco3)[nH]c2c1	2.1	0.4%	3.9%	6.1%
O=C1CN(C(=O)COC(=O)CCc2ccccc2)c2ccccc2N1	·	·	-0.1%	1.4%
COc1cc(NC(=O)c2ccc(COc3ccccc3Br)o2)cc(OC)c1OC	-12.1	10.9%	-4.2%	11.7%
COc1ccc(/C=C/C(=O)OCC(=O)Nc2ccc(N3CCOCC3)cc2)cc1OC	-13.4	8.7%	-2.7%	-15.2%
Cc1ccccc1N(CC(=O)N/N=C/c1cc(C)n(-c2ccccc2C)c1C)S(C)(=O)=O	4.1	-3.8%	0.1%	3.4%
COc1ccccc1-c1cccc([C@@H]2C[C@H]3[C@H](CON3C)CN2Cc2cc(Cl)cc(Cl)c2)c1	·	·	0.5%	-0.4%
CCCN1CCc2c(sc(NC(=O)c3ccc(S(=O)(=O)N4CCN(C(=O)OCC)CC4)cc3)c2C(N)=O)C1	·	-12.3%	?	?
CC1CCCC(C)N1C(=O)CSc1nnc(-c2cccs2)o1 (stereo not given)	-10.4	-35.7%	0.0%	1.4%

Just Rango release inh and Rango complex inh, for some of the entries so far:
SMILES | Rango release inh | Rango complex inh
CCOc1ccc(N/C(C)=C\C(=O)c2ccc3c(c2)OCCO3)cc1 | -3.6% | -2.6%
CCCN1CCc2c(sc(NC(=O)c3ccc(S(=O)(=O)N4CCN(C(=O)OCC)CC4)cc3)c2C(N)=O)C1 | ? | ?
